Bioassay records: PubChem BioAssay, National Center for Advancing Translational Sciences (NCATS)
VDR inhibitor: Inhibitors of the vitamin D receptor (VDR): qHTS; VDR-SRC2-3 peptide fluorescence polarization, 2 h; AID 504847, 2011; Vitamin D3 receptor (Homo sapiens), P11473; 0.93% of 400,000 active; Potency, µM, inactives show max response, negative = inhibition, most hits filed as inhibitors; active means well fitted inhibition curve with a large enough effect; inconclusive means small, poorly fitted or top-dose-only effect, or another doubt; inactive means no such curve, though single readings can be large or run the other way; further: series mostly up to about 120 µM
Target sequence (P11473 whole entry, looked up): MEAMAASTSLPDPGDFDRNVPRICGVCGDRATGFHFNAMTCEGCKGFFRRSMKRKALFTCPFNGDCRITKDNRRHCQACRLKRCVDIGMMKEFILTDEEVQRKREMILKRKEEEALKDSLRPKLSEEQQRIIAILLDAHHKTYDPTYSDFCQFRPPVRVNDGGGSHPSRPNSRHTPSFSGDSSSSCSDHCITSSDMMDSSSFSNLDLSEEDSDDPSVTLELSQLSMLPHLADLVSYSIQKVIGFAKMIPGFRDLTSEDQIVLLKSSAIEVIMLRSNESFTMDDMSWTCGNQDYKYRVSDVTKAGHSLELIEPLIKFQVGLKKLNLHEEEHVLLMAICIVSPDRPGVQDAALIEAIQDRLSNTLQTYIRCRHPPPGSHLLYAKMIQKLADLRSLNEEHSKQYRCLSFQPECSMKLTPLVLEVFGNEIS
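VDR–SRC2-3 interaction, FP format. Cmpds 23 nl via pintool, brief spin, 2 h ambient incubation.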
Numbers without * were called inactive; ? = inconclusive; & = joins results of further samples. On the % scale 0 is the no-effect control and ±100 the full control effect; potency means the concentration at half of the fitted maximal effect.

structure,VDR inhibitor
CCCCNC(=O)CCCN1C(=O)c2cccnc2Sc2ccccc21,-8%
Cc1nn(C)c(C)c1S(=O)(=O)N1CCCC(C(=O)NC2CCCCCC2)C1 (centres undefined),?
Cc1c(NC(=S)NC(=O)c2ccco2)cccc1-c1nc2ncccc2o1,-3%
CC(C)(C)c1[nH]nc2c1C(c1ccccc1OC(=O)N1CCOCC1)C(C#N)=C(N)O2 (centres undefined),1%
CCCNC(=S)N1CCCC(c2nc3ccccc3[nH]2)C1 (centres undefined),-8%
CCSc1nnc(NC(=O)c2cccc(OCc3c(C)noc3C)c2)s1,-3%
Cc1cc(S(=O)(=O)Nc2cccnc2)c(C)s1,5%
COC(=O)N/N=C(\C)c1ccc(OC(F)F)cc1,-23%
CC1(C)OC(=O)C2(Cc3ccc(Cl)cc3N3CCCCC32)C(=O)O1 (centres undefined),4%
Cc1cc(Cl)ccc1OCC(=O)OCC(=O)N1CCC(C(N)=O)CC1,-1%
N=C1/C(=C/c2cccn2CCOc2ccccc2)C(=O)N=C2SC=C(c3ccccc3)N12,-12%
CC1CCN(C(=O)/C(=C\c2cccs2)NC(=O)c2ccccc2)CC1,13%
CCCC(C)NC(=O)c1ccc(C2SCC(=O)N2Cc2ccco2)cc1 (centres undefined),-14%
COc1ccc(CCN2C(=O)c3cccc4c(C(=O)N5CCCCC5)ccc(c34)C2=O)cc1OC,-11%
Cc1cc(NC(=O)Cn2cc(C(F)(F)F)cc(Cl)c2=O)no1,-16%
CN(C)CCOC(=O)NC12CC3CC(CC(C3)C1)C2,-5%
CC1CN(C(=O)CCC(=O)NCc2ccccc2)c2cc(Cl)ccc2O1 (centres undefined),2%&7%
O=C(COc1ccc(S(=O)(=O)N2CCCCC2)cc1)NCc1ccccn1,-17%
COc1ccc(OC)c(C2=Nn3c(nnc3-c3cc(C)[nH]n3)SC2)c1,-7%
CCOC(=O)c1cc(C)nn1-c1nc(Cl)cc(OC)n1,-14%
CCN(Cc1ccccc1)C(=O)Cn1c(=O)n(-c2ccc(OC)cc2OC)c(=O)c2c(C)c(C)sc21,-24%&-1%
Cc1ccsc1C(=O)NNC(=O)Nc1ccc(Cl)c(Cl)c1,-16%
CC(C)(C)NC(=O)Cn1c(=O)c(=O)n(Cc2ccccc2)c2ccc(Cl)cc21,-24%
COc1cccc(NC(=O)c2sc3nc(C)c(C(=O)Nc4ccc(C)cc4C)c(-c4ccc(C)o4)c3c2N)c1,-3%
CCN(CC)CCCNC(=S)N1CCN(c2nc(-c3ccccc3)cs2)CC1,-5%
COc1ccc(-c2cn3c(n2)sc2cc(C(=O)NC4CCCCC4)ccc23)cc1,13%
CC1(C)CC(=O)C(C=Nc2cccnc2/N=C/C2=C(O)CC(C)(C)CC2=O)=C(O)C1,1%
Cc1ccc(S(=O)(=O)N(C)c2ccc(OCC(=O)OCC(=O)N(CC#N)c3ccccc3)cc2)cc1,-7%
Cc1ccc(C)c(C(=O)CN2C(=O)NC3(CCC(C)CC3)C2=O)c1 (centres undefined),-8%
Cc1ccc(C(=O)NNC(=O)CCn2nnc3ccccc32)cc1,2%
COC(=O)C1=CN(C)C=C(C(=O)OC)C1c1ccccc1Cl,-7%
Clc1cccc(-c2csc(Nc3cccnc3)n2)c1,7%
Oc1ccc(-c2cccc(-c3ccc(O)cc3)c2)cc1,20%
CC(=O)c1cccc(NC(=O)Nc2cccs2)c1,11%
CC(=O)c1ccc(NC(=O)c2ccc(NC(=O)c3ccco3)cc2)cc1,-6%
CSc1cc(-c2ccccc2)n(Cc2ccccc2Cl)c(=O)c1C#N,-2%
Cc1ccc(NC(=O)Cn2c(=O)n(Cc3nc(-c4ccccc4)no3)c(=O)c3ccccc32)c(C)c1,7%
CC(=O)N1CCN(c2cccc(C)c2C)CC1,4%
O=C(NCC1CCCO1)c1cccc(NS(=O)(=O)c2ccc(Br)cc2)c1 (centres undefined),-17%
COc1ccc(NC(=O)Nc2cccc3c2O[C@H](CN(C)C(=O)Nc2c(C)noc2C)[C@@H](C)CN([C@H](C)CO)C3=O)cc1,2%
CCC(Oc1ccccc1)C(=O)Nc1nc2c(s1)C(=O)CC(C)(C)C2 (centres undefined),-2%
CCOC(=O)c1c(C)noc1-c1ccc(Br)o1,-10%
COc1ccc(-c2nc(-c3ccc(O)cc3O)cs2)cc1OC,6%
COc1ccc(OC(C)C(=O)N2CCc3ccccc3C2)cc1 (centres undefined),-15%
COC(CN(C)C(=O)c1ccc(CS(=O)(=O)c2ccccc2C)o1)OC,5%
Cc1ccc(S(=O)(=O)N2C[C@@H]3CCCC[C@@H]3[C@@H](C)[C@H]2c2cn(Cc3ccccc3)c3ccc(F)cc23)cc1,-1%
CN1CCN(S(=O)(=O)c2ccc(NC(=O)COc3ccccc3Cl)cc2)CC1,7%
COc1ccc(Cl)cc1NC(=S)Nc1ccccc1C,?
CCOc1ccc(N(CC(=O)NCc2ccccc2Cl)S(=O)(=O)c2c(C)[nH]c(=O)[nH]c2=O)cc1,-5%&-5%
COc1ccc(NC(=O)C2CCN(S(=O)(=O)c3c(C)noc3C)CC2)cc1Cl,12%
CCc1ccc(C2CC(=O)NC(SCC(=O)OC(C)C)=C2C#N)cc1 (centres undefined),-19%
CN(C(=O)CNC(=O)c1ccc(Br)o1)C1CCCCC1,-7%
CCOC(=O)c1nnsc1-c1ccc(-c2snnc2C(=O)OCC)cc1,-32%
CC(=O)Nc1ccc(C2=NN(CC#N)C(=O)SC2)cc1,29%
O=C1CCN(Cc2ccccc2)N1,13%
CCCCCN(C(=O)CCC(=O)OCC(=O)N(CC#N)c1ccccc1)c1c(N)n(CCCC)c(=O)[nH]c1=O,-9%
Cc1ccc(C)n1CCN1CCN(C(=O)c2ccco2)CC1,-6%
CCCc1nn2c(=O)cc(CSCC(=O)Nc3ccc(F)cc3)nc2s1,3%
CC(=O)Nc1ccc(N2C(=O)CC(Sc3nccc(C)n3)C2=O)cc1 (centres undefined),-12%
Cc1cccc(C)c1OCC(=O)Nc1cccc(S(=O)(=O)N2CCCC2)c1,-4%

Next structures
canonical_smiles | VDR inhibitor
O=C(C[n+]1cccc(O)c1)NCc1ccc(Cl)cc1 | 6%
CCCN1CNc2c(c(=O)[nH]c(=S)n2CCc2ccccn2)C1 | -6%
O=S(=O)(c1cccc(-c2nnc3n2CCCCC3)c1)N1CCCC1 | -8%
CCOC(=O)c1nnn(CC(=O)Nc2ccccc2OC)c1C(=O)OCC | 5%
CCOc1ccc(S(=O)(=O)Nc2ccc3oc4c(c3c2)CC(C)CC4)cc1 (centres undefined) | -17%
CCOC(=O)Nc1ccc(S(=O)(=O)NC2CCCCC2)cc1 | -3%
CCOC(=O)N1CCN(C(=O)c2cc(C)no2)CC1 | 1%
NC(=O)COC(=O)CCCc1nc2ccccc2s1 | -2%
COc1ccccc1CNC(=O)CN(C)S(=O)(=O)c1ccc(F)cc1 | -17%
CC(C)(C)c1ccc(C(=O)NCc2nnc(SCC(=O)NC3CCCC3)o2)cc1 | -6%
CCCCOC(=O)Nc1nc(C)c(C(=O)OCC)s1 | -20%
O=C(/C(=N\O)n1cncn1)c1ccc(Br)cc1Br | -12%
CCOc1ccc(NC(=O)c2ccc(NC(=S)NC3CC3)cc2)cc1 | -15%
O=C(c1cnn(C(=O)COc2ccccc2F)c1)c1cc(F)ccc1O | ?
COc1ccc(/C=C(\NC(=O)c2ccccc2)C(=O)OC[C@@H]2CCC[N+]3(C)CCCCC23)cc1OC (some centres undefined) | -5%
O=C(Cc1ccccc1F)Nc1cc(S(=O)(=O)N2CCOCC2)ccc1N1CCOCC1 | -7%
CCOc1ccc(N/C(C)=C/C(=O)c2ccc3c(c2)OCCO3)cc1 | -15%
CC(C)(C)c1ccc(-n2ncc3c2CCCC3NC(=O)C2(C(N)=O)CC2)cc1 (centres undefined) | -13%
CCC(=O)Nc1nnc(SCC(=O)Nc2cccc(Cl)c2)s1 | -4%
CCN(CC)CCN(Cc1cc2cc(C)c(C)cc2[nH]c1=O)C(=S)NCc1ccco1 | 26%
Cc1csc(Nc2nc(N)c(C(=O)Nc3cc(Cl)ccc3F)o2)n1 | -5%
CC(C)(C)OC(=O)NCc1ccc(CNC(=O)c2[nH]cnc2C(=O)NCC(=O)OCc2ccccc2)cc1 | -10%
Cc1cc(C)c(NC(=O)c2cc(S(=O)(=O)NCCC3=CCCCC3)ccc2F)c(C)c1 | -12%
COc1cc(C(=O)NC2CCN(CC(=O)NC3CCCCC3)CC2)cc(OC)c1OC | 16%
COc1ccc(C(=O)CSc2nc(C)cc(C)n2)cc1C | 12%
Cc1ccc(OCCC(=O)Nc2cc(S(=O)(=O)N3CCOCC3)ccc2N2CCCC2)cc1 | 8%
O=C(NCCN1CCN(c2ccccc2)CC1)c1cccc(Cl)c1 | 5%
COc1ccc(CCNC(=O)CCCN2C(=O)c3ccccc3C2=O)cc1 | -2%
Cc1ccc(NC(=O)NC(=O)N(C2CCCCC2)S(=O)(=O)c2ccccc2)cc1 | ?
CCn1cc(/C=N/NC(=O)c2ccc3c(c2)OCO3)c(C)n1 | -2%
Cc1cc(C)cc(-n2c3nc4ccccc4nc3c3c(=O)n(Cc4ccco4)cnc32)c1 | -25%
O=c1[nH]c(SCc2c(F)cccc2Cl)nc2c1CCCC2 | 3%
COc1ccc(S(=O)(=O)N2CCOCC2)cc1C(=O)Nc1ccc(N2CCCCCC2)cc1 | -13%
O=C(/C=C/Nc1cccc([N+](=O)[O-])c1)c1ccco1 | 9%
CCC(C(=O)NC1CCCCC1)n1c(SCc2ccccc2F)nc2ccncc21 (centres undefined) | 4%&-18%
CCOc1ccc(CCNC(=O)CSc2nnnn2-c2ccccc2Cl)cc1OCC | 14%
COC(=O)C1=C(C(=O)OC)C2C(C)=CC(C)=CN2C(C(=O)OC)=C1C(=O)OC (centres undefined) | -17%
C=CCSc1nc(N2CCOCC2)c2c(c1C#N)CC(C)(C)N(C)C2 | 11%
COc1cc(OC)cc(C(=O)Nc2ccc(Cn3ccnc3)cc2)c1 | 14%
O=C1CC(N2CCN(c3ccccc3F)CC2)C(=O)N1c1ccc2c(c1)OCCO2 (centres undefined) | 12%
CS(=O)(=O)n1nc(OC(=O)c2cc(Br)ccc2Cl)cc1N | ?
CC(NC(=O)c1ccco1)c1nc(-c2ccccc2Cl)no1 (centres undefined) | -1%
CC(CNC(=O)c1cnn(-c2ccc(F)cc2)c1-n1cccc1)c1ccccc1 (centres undefined) | -2%
O=C1c2ccccc2C(=O)N1CCSc1nnc(-c2ccco2)n1Cc1ccccc1 | -14%
CCCc1nc2ccccc2c(=O)n1-c1c(C)n(C)n(-c2ccccc2)c1=O | 2%
Cc1cc(C)cc(NC(=O)c2ccc3oc(=O)c(S(=O)(=O)c4ccc(F)cc4)cc3c2)c1 | -2%
COc1ccccc1C(CNc1ccc(S(=O)(=O)N2CCCC2)cc1[N+](=O)[O-])N(C)C (centres undefined) | -16%
CCN(CC(=O)Nc1ccc(NC(C)=O)cc1)C(=O)c1cc([N+](=O)[O-])ccc1Sc1ccc(Cl)cc1 | -21%
O=C(COc1ccc2ccc(=O)oc2c1)NCC(O)c1ccccc1 (centres undefined) | 2%
CCOC(=O)c1ccc(N/C=C2/CCCC(C)C2=O)cc1 (centres undefined) | -8%
CC1(C)OC(=O)C(=CNCC(=O)NCC(=O)O)C(=O)O1 | 11%
Cc1ccc2nsnc2c1NC(=O)c1cccnc1Cl | -13%
CCOc1ccc(/C=C/C2=CC(C)(C)NC(=S)N2)cc1 | -20%
CCOc1ccccc1CNC(=O)c1cc2cc(S(=O)(=O)N3CCCCC3)ccc2n1C | 2%
COc1ccc(NC(=O)Cn2nnc(-c3ccccc3NC(=O)c3cccs3)n2)cc1 | 5%
CNCc1ccccc1OCC(=O)Nc1ccccc1 | 3%
CCN(CC)C(=O)c1cnn(-c2ccccc2)c1NC(=O)c1ccccc1F | 1%
Cn1c(SCC(=O)NCc2ccc(F)cc2)ncc(C(=O)Nc2ccccc2)c1=O | 10%
COc1ccc(C(=O)Nc2ccc3c(c2)OCCO3)cc1[N+](=O)[O-] | 2%
CCOC(=O)Cc1csc(NC(=S)NC(=O)C(C)(C)C)n1 | ?
O=C(CCN1C(=O)c2ccccc2C1=O)Nc1ccccc1C(F)(F)F | -22%

Structures listed so far containing an aryl thioether with sulfur outside any ring:
canonical_smiles | VDR inhibitor
CCSc1nnc(NC(=O)c2cccc(OCc3c(C)noc3C)c2)s1 | -3%
CSc1cc(-c2ccccc2)n(Cc2ccccc2Cl)c(=O)c1C#N | -2%
CC(=O)Nc1ccc(N2C(=O)CC(Sc3nccc(C)n3)C2=O)cc1 (centres undefined) | -12%
CC(C)(C)c1ccc(C(=O)NCc2nnc(SCC(=O)NC3CCCC3)o2)cc1 | -6%
CCC(=O)Nc1nnc(SCC(=O)Nc2cccc(Cl)c2)s1 | -4%
COc1ccc(C(=O)CSc2nc(C)cc(C)n2)cc1C | 12%
O=c1[nH]c(SCc2c(F)cccc2Cl)nc2c1CCCC2 | 3%
CCC(C(=O)NC1CCCCC1)n1c(SCc2ccccc2F)nc2ccncc21 (centres undefined) | 4%&-18%
CCOc1ccc(CCNC(=O)CSc2nnnn2-c2ccccc2Cl)cc1OCC | 14%
C=CCSc1nc(N2CCOCC2)c2c(c1C#N)CC(C)(C)N(C)C2 | 11%
O=C1c2ccccc2C(=O)N1CCSc1nnc(-c2ccco2)n1Cc1ccccc1 | -14%
CCN(CC(=O)Nc1ccc(NC(C)=O)cc1)C(=O)c1cc([N+](=O)[O-])ccc1Sc1ccc(Cl)cc1 | -21%
Cn1c(SCC(=O)NCc2ccc(F)cc2)ncc(C(=O)Nc2ccccc2)c1=O | 10%

Not all compounds are listed; the hit share may differ from the screen's.
